CapD inh: blocks the Bacillus anthracis CapD enzyme; purified CapD enzyme, fluorescence intensity read-out; stronger effect = lower value; some hits fall short of the stated cut; hit rate 0.23% among 140,000; z-score (test concentration not listed);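 active means z-score under -4 in either of two replicates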;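 further: stock transfer was 100 nL into about 40 µL; score is relative to mean and spread of the plate; one replicate is shown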
AID504770: growth inhibitors of E. coli YBA685 in a screen for V. cholerae RctB (chromosome II replication) inhibitors. E. coli YBA685 rctB-dependent plasmid, OD600 growth, 3 h; stronger effect = lower value. z-score (no concentration beside the values). hit rate 0.27% among 130,000. AID 504770;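 active means z-score under -2 on both plates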;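 further: wells of about 30 µL received 100 nL stock; score is relative to mean and SD of the test wells; the first replicate is given; strong numbers were not always called active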
Active calls of the source: *; · = not tested or not shown; & = joins results of further samples. Not all compounds are listed; count on the stated rates, not on these rows.

SMILES	CapD inh	AID504770
CC(C)CCCC(C)C1CCC2C3CC=C4CC(OC(=O)c5ccccc5)CCC4(C)C3CCC12C (configuration not stated)	-0.3	·
Cc1cc(C(=O)COC(=O)CSc2nc3ccccc3o2)c(C)n1C	·	-0.65
Cc1cccc(N=C=S)c1C	·	0.2
Cc1cc(C(=O)CSc2ncc(-c3ccccc3)n2C)c(C)n1-c1ccc(S(N)(=O)=O)cc1	·	0.2
Clc1cccc(Cn2c(/C=C/c3ccccc3Cl)nc3ccccc32)c1	42.8	·
CCOC(=S)SCc1cc(F)cc2c1OCOC2	-0.455	0
CCOc1ccccc1N1CCN(Cn2nc(-c3ccco3)oc2=S)CC1	·	0
CCCN(CCC)C(=O)CSc1nc2ccncc2[nH]1	-0.435	-0.1
CSc1nsc(SC)c1C(=O)NC(=O)OCc1ccccc1	0.16	0.25
Cc1ccc(S(=O)(=O)N(CC(=O)O)C2CCCCCC2)cc1	·	-0.5
CN(C)C1(CNC(=O)C2CCN(S(=O)(=O)c3ccc4c(c3)OCCCO4)CC2)CCCCC1	·	-0.3
COc1cc(/C=C/C(=O)Nc2cccc3c(=O)[nH][nH]c(=O)c23)cc(S(=O)(=O)N2CCc3ccccc32)c1OC	·	-0.35
Cc1cccc(-n2c(SCC(=O)NC3(C#N)CCCC3)nc3ccccc3c2=O)n1	·	-0.15
CC(C)(C)c1ccc(-c2nnc(-c3ccccc3NC(=O)c3ccc(Cl)cc3)o2)cc1	2.99	·
O=C(NCc1c(Cl)cccc1Oc1ccccc1)c1ccccc1	0.03	-1.2
O=C1c2ccccc2-c2nn(C(=O)c3cccnc3)c3cccc1c23	-0.13	0.35
COc1cc(NS(=O)(=O)c2ccc(Nc3nc(-c4sc(NC(C)=O)nc4C)cs3)cc2)nc(OC)n1	6.13	·
O=C(NCC1CCCO1)C1CCN(Cc2ccccc2O)CC1 (configuration not stated)	0.27	-0.25
CCOC(=O)N1CCC(NC(=O)c2cc(C(=O)NC3CCCC3)ccc2CO)CC1	-0.12	-2.05
CCC(Sc1nc2ccsc2c(=O)n1Cc1ccccn1)C(=O)Nc1cccc(OC)c1 (configuration not stated)	0.36	0.55
Cc1ccc(C2=Nc3ccccc3N=C(c3cccc(Br)c3)C2)c(O)c1	-0.38	·
Cc1cc(C(=O)Nc2ccccc2N2CCCCC2)c(C)o1	-0.63	-0.8
O=C(Oc1ccccc1Cl)C1CCCCC1	0.295	-0.2
CCOC(=O)C1=C(C)NC(SC)=NC1c1cccs1 (configuration not stated)	0.28	-0.15
NNC(=O)Cc1ccccc1	·	1.25
CNC(=S)N(Cc1ccc(OC)cc1OC)c1ccc(I)cc1	-0.485	-0.65
Cc1nc(Oc2ccc3c(C)cc(=O)oc3c2)c2c3c(sc2n1)CCC3	6.54	0.55
C=C(C)Cn1c(=S)[nH]c2c(c1=O)C(C)(C)Cc1ccccc1-2	0.26	0.45
COc1cccc(CC(=O)NNC(=O)c2cnn(-c3ccc([N+](=O)[O-])cc3)c2C(F)(F)F)c1	0.305	·
Cc1ccc(S(=O)(=O)N(C)CC(=O)NN)cc1	·	0.7

As a working copy, part of the list above:
SMILES	CapD inh	AID504770
Cc1ccc(C2=Nc3ccccc3N=C(c3cccc(Br)c3)C2)c(O)c1	-0.38	·
Cc1cc(C(=O)Nc2ccccc2N2CCCCC2)c(C)o1	-0.63	-0.8
O=C(Oc1ccccc1Cl)C1CCCCC1	0.295	-0.2
CCOC(=O)C1=C(C)NC(SC)=NC1c1cccs1 (configuration not stated)	0.28	-0.15
NNC(=O)Cc1ccccc1	·	1.25
CNC(=S)N(Cc1ccc(OC)cc1OC)c1ccc(I)cc1	-0.485	-0.65
Cc1nc(Oc2ccc3c(C)cc(=O)oc3c2)c2c3c(sc2n1)CCC3	6.54	0.55

(further entries)
SMILES	CapD inh	AID504770
COC(=O)c1cc(-c2ccccc2)oc1CN	·	-0.9
CCOC(=O)N1CCC(N/C=C(\C#N)S(=O)(=O)C(C)C)CC1	-1.05	0.3
CN(Cc1ccccc1)Cn1ncn(C)c1=S	·	0.2
O=C1C(=O)N2c3ccccc3OC(=O)C2(O)/C1=C(\O)c1ccccc1 (configuration not stated)	-1.88	0.25
CC1CCN(C(C(=O)O)c2ccccc2)CC1 (configuration not stated)	·	1.3
O=C(O)CNc1ccc2nncn2n1	·	-0.8
Ic1ccc2c(c1)Cc1ccccc1-2	-0.145	·
Cc1ccc(CNC(=O)c2cc3oc4ccccc4c3n2C)cc1	6.32	-1.35
Cc1cc(=O)[nH]c(N2CCOCC2)n1	-0.33&-0.4	-0.95&-0.9
CCOc1cc(C=C2C(=O)NC(=S)NC2=O)cc(Cl)c1OCCOc1ccc(C)cc1	0.04	·
CC(=O)NC1C(=O)N(C(C)C)c2ccccc21 (configuration not stated)	·	0.55
c1ccc(-c2nnc(-c3ccc4c(c3)OCO4)nc2-c2ccccc2)cc1	·	-1.05
O=C(NCc1cccnc1)c1cc(-c2cccc(Br)c2)nc2ccccc12	-0.54	-1.3
CCC1CCc2c(sc(NC(=O)CN3CCC4(CC3)OCCO4)c2C#N)C1 (configuration not stated)	-0.23	1.5
Nc1nonc1/C(=N/OC(=O)c1ccccc1)N1CCOCC1	·	1.85
O=C1CCC(=O)N1c1cccnc1	0.505	-0.4
CCOc1cc(C(=O)CCC(=O)O)ccc1O	·	-0.9
Cn1c(C(O)C(F)(F)F)nc2ccccc21 (configuration not stated)	·	-0.05
Cc1cc2c(=O)n(CC(=O)N3CCCCCC3)cnc2s1	0.03	-0.35
CSC(=Nc1ccccc1)C(C#N)c1nc2ccccc2[nH]1 (configuration not stated)	-0.27	0.6
CCOc1ccc2nc(N3CCC(C(=O)Nc4cccnc4)CC3)sc2c1	-0.145	0.15
Cc1ccc2c(c1)C1CN(C)CCC1N2C(=O)/C=C/c1ccccc1 (configuration not stated)	-2.17	-0.05
Cc1sc2ncnc(SC3CCCCN(C(=O)c4ccccc4)C3=O)c2c1C (configuration not stated)	-0.36	0.2
COc1ccccc1CC(=O)c1ccc(O)cc1O	-1.06	0.1
O=C(NC(C(=O)N1CCOCC1)C12CC3CC(CC(C3)C1)C2)C1CCCCC1 (configuration not stated)	-0.03	-0.6
C/C(=N\N)c1c(-c2ccccc2)c2cc(Cl)ccc2[nH]c1=O	·	-0.15
COc1cccc(CNCc2cccnc2)c1OCc1ccccc1F	0.14	-0.05
CCc1ccc2[nH]c(=O)c(C(c3nnnn3C(C)(C)C)N3CCc4ccccc4C3)cc2c1 (configuration not stated)	0.455	-0.55
C=CCN(C(=O)CSc1nc2[nH]ncc2c(=O)n1-c1cccc2ccccc12)c1ccccc1	-0.53	-0.25
COc1ccc(OC)c(NC(=O)CSc2nc3n[nH]c(C)c3c(=N)n2-c2ccc(C)c(Cl)c2)c1	0.4	·
CN(C)/C=N/c1c(C#N)cnn1-c1ncnc2sc3c(c12)CCC3	-0.24	0.3
CCOC(=O)Cn1c(=O)oc2cc(S(=O)(=O)Nc3cc(C)ccc3OC)ccc21	-0.95	0.4
CC(=O)Oc1cc2c(C(=O)NCCN3CCOCC3)c(C)oc2c2ccccc12	0.255	0
CCOC(=O)C1=C(C)N=c2s/c(=C3\C(=O)N(C(C)=O)c4ccccc43)c(=O)n2C1c1cccc([N+](=O)[O-])c1 (configuration not stated)	-0.165	·
CCn1c2c(c3cc(F)ccc31)CCCC2=O	4.23	0
COC(=O)CC1=NN(c2ccccc2)C(=O)C1	0.73	-0.8
COc1ccc(-n2nnnc2C2(Nc3ccc(I)cc3)CCCCC2)cc1	-0.2	·
N#Cc1ccsc1NC(=O)CCOc1ccccc1	0.065	-0.3
O=c1[nH]c(NN=C2CCCCC2)nc2sc3c(c12)CCCC3	·	-0.55
CCOC(=O)c1oc2ccc(Cl)cc2c1NC(=O)CCCN1C(=O)c2ccccc2C1=O	1.74	0.35
O=C(CSc1nnc(-c2ccccc2)n1-c1ccccc1)NC(=O)CN1CCCC1=O	·	-0.2
COC(=O)C1=C(C)N(c2ccc(C)cc2)C(=O)/C1=C\c1ccc2c(c1)OCO2	-0.265	1.5
CCCNS(=O)(=O)c1cc2c(cc1C)N(C)CCO2	5.74	-0.65
CN1C(=O)N(C)C2(c3ccccc3)Nn3c(s/c(=C/c4ccco4)c3=O)=NC12c1ccccc1 (configuration not stated)	-0.715	·
COCC(C)NC(=O)C1CC(=O)N(c2ccccc2)C1 (configuration not stated)	·	0.15
c1ccc(-c2nc3ccccc3nc2N2CCCC2)cc1	·	1.3
COc1ccccc1C(=O)OCC(=O)c1ccccc1F	-0.71	0.95
CCOC(CNC(=O)c1cccc(NS(=O)(=O)c2ccccc2S(C)(=O)=O)c1)(OCC)c1ccccn1	0.36	·
CN(C)C(=O)C[n+]1ccc(C(N)=O)cc1	0.165	-1
CC(=O)N(c1ccc(C)cc1)C1C=CS(=O)(=O)C1 (configuration not stated)	0.72	-0.2

(listing goes on)
SMILES	CapD inh	AID504770
COc1ccc(NC(=O)CCCN2C(=O)C3C4C=CC(C4)C3C2=O)c(OC)c1 (configuration not stated)	0.63	0.1
COC(=O)Nc1ccc(S(=O)(=O)n2cnc3ccccc32)cc1	·	-0.15
Cc1ccc(CN(C)C(=O)c2ccc(C#N)cc2)o1	·	-1.05
O=c1oc2cc(O)ccc2cc1S(=O)(=O)c1ccccc1	45.2	-0.05
Cc1cc(Nc2ccccc2)n(-c2ccccc2C(=O)O)n1	-0.275	-0.3
O=C(Nc1cccc(-c2cn3ccccc3n2)c1)c1cccc(Cl)c1	0.34	-0.85
Cc1nc2ccccc2c(=O)n1/N=C/c1ccc(N2CCOCC2)cc1	·	-2.15
Cc1ccc(C23CC4CC(CC(C(=O)NC(C)C)(C4)C2)C3)cc1	-0.235	·
O=C(CN1C(=O)CCC1=O)Nc1ccc(Cl)cc1	·	1.1
Cc1cccc(NC(=O)c2cc(S(=O)(=O)N3CCc4ccccc4C3)ccc2F)c1C	-0.375	·
COc1ccc(-n2c(N)c(-c3nc4ccccc4n3C)sc2=S)cc1	0.15	0
CCOC(=O)c1c(CN2CCOCC2)oc2ccc(OC)cc12	0.67	-0.6
O=C(Cc1ccccc1)CC1(O)C(=O)Nc2ccccc21 (configuration not stated)	0.905	0.1
Cc1cc2cc(CNS(=O)(=O)c3ccccc3)ccc2[nH]1	0.225	-1.25
O=C(c1cccc(S(=O)(=O)N2CCOCC2)c1)n1nnc2ccccc21	·	-0.6
NCCCc1ccco1	·	-1.3
N#CCCn1nc(Nc2ccccc2)n(-c2ccccc2)c1=S	0.175	0.45
CCCc1c(C)nc2c(OC)cccc2c1SCC(=O)O	36.7	-0.45
CCCN1CCC(NCC(C)c2ccccc2)CC1 (configuration not stated)	-0.085	-0.95
NNc1cccc2cccnc12	-0.585	0.35
COc1cc(C2C(C#N)=C(N)Oc3n[nH]c(-c4cccc([N+](=O)[O-])c4)c32)cc(OC)c1OC (configuration not stated)	-0.73	·
COc1cc(C2C3=C(CC(C)(C)CC3=O)OC3=C2C(=O)CC(C)(C)C3)ccc1OCc1c(F)cccc1Cl	1.44	·
Cc1nn(-c2ccccc2)c(C)c1/C=C1\CCCC2=C1OC(N)=C(C#N)C2c1c(C)nn(-c2ccccc2)c1C (configuration not stated)	0.025	-0.5
Cc1ccc(NC(=O)CSc2nnc(N3C(=O)c4ccccc4C3=O)s2)c(C)c1	6.88	1.45
CCN1C(=O)c2cccc3c(NC(=O)c4cccc(N5C(=O)CCC5=O)c4)ccc1c23	·	0.55
CCCNC(=O)c1c(C)[nH]c(C(=O)OCC)c1C	-0.24	0.45
N#Cc1cc(O)c(-n2nnc3ccccc32)cc1C#N	·	1.95
CC(C)CN(CC(C)C)S(=O)(=O)Cc1ccccc1	0.06	1.35
Oc1ccc2ccccc2c1CN1CCc2ccccc2C1	9.73	0.05
O=c1c(Cc2ccccc2O)c(O)nc2n1CCCS2	0.335	2
Cc1nc2c(C#N)c(C)[nH]n2c(=O)c1Cc1ccccc1	2.33	-1.4
O=C(CN1C(=O)C2(OCCO2)c2cc(Br)ccc21)c1ccccc1C(F)(F)F	0.6	·
O=C1C2C3c4ccccc4C(c4ccccc43)C2C(=O)N1c1ccc(Cl)cc1[N+](=O)[O-] (configuration not stated)	-0.405	·
O=C(COc1ccc(S(=O)(=O)NCc2ccccc2)cc1Cl)N1CCOCC1	·	-0.35
Cc1ccc(NC(=O)Cn2cnc3sc(C(=O)N4CCN(c5ccc([N+](=O)[O-])cc5)CC4)c(C)c3c2=O)cc1Cl	0.6	·
CC1SC(C)C(=O)N(CC(=O)NCc2ccccc2)C1=O (configuration not stated)	0.155	-0.55
Cc1cccc(N2C(=O)C3C(C4=C(O)c5ccccc5C4=O)=NC(c4ccccn4)C3C2=O)c1 (configuration not stated)	1.21	0.35
Cc1ccc(OCc2nnc(SCC(=O)c3ccc(F)c(F)c3)n2-c2ccccc2)c2c1CCC2	0.205	·
Cc1ccc(Cl)cc1NC(=O)CSC1=C(C#N)C(c2ccco2)C2=C(CCCC2=O)N1 (configuration not stated)	3.6	·
NC(=O)NC(Cc1ccccc1)C(=O)N1CCN(S(=O)(=O)c2ccc(Cl)cc2)CC1 (configuration not stated)	·	-0.85

Whole records, looked up by structure:
`Cc1ccc(NC(=O)Cn2cnc3sc(C(=O)N4CCN(c5ccc([N+](=O)[O-])cc5)CC4)c(C)c3c2=O)cc1Cl` as listed: CapD inh: 0.6; AID504770: ·
`Cc1nc2c(C#N)c(C)[nH]n2c(=O)c1Cc1ccccc1` as listed: CapD inh: 2.33; AID504770: -1.4

New compounds follow
SMILES	CapD inh	AID504770
CCC1(C)Cc2ccccc2-c2nc3n(c(=O)c21)CC(C(=O)O)S3 (configuration not stated)	41.5	-0.25
C/C(=C\c1ccccc1)CN(C)C1CCN(C)CC1	0.125	-0.45
S=C(N/N=C/c1cccnc1)NC1CCCCC1	·	0.05
Cc1oc(CSCc2cc(C(=O)O)c(C)o2)cc1C(=O)O	-0.895	1.75
